# From PubChem BioAssay
# YopH PTP inh – inhibitors of Yersinia enterocolitica YopH tyrosine phosphatase; fluorescence Ex485/Em525; inhibition, %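 (about 10 µM by stock and volumes)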; 0.16% of 140,000 active;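 active = inhibition of 50% or more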;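 note: controls were vehicle for no effect and minimum signal wells for full effect; inactives centre near -20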
# Mtb bLac sens – beta-lactam sensitization of Mtb H37Rv; M. tuberculosis H37Rv growth with meropenem, percent inhibition; hits of this screen are not shown here; 0.27% of 330,000 active; AID 434955; inhibition, % at 25 µM;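 active = about 74% or more and at least 40 points above the plate without the antibiotic, then above 30% in a dose series; inconclusive = first-round hits that could not be retested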;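 note: growth measured after seven days incubation then overnight dye step; 0% = bacteria only wells and 100% = bacteria with antibiotic; twin plates without the antibiotic show which effects depend on it; some results filed as inactive read as strong as hits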
# RecA splice inh – blocks M. tuberculosis RecA intein splicing. P9WHJ3. cell-free RecA intein splicing, fluorescence. inhibition, %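 (about 9 µM by stock and volumes)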. 0.75% of 290,000 active. AID 2221; in the data active = inhibition above about 30%; inconclusive = no clear call, values can overlap the other calls;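 note: 0% = vehicle wells and 100% = reference inhibitor control wells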
# Target sequence (P9WHJ3 whole entry, looked up, canonical isoform): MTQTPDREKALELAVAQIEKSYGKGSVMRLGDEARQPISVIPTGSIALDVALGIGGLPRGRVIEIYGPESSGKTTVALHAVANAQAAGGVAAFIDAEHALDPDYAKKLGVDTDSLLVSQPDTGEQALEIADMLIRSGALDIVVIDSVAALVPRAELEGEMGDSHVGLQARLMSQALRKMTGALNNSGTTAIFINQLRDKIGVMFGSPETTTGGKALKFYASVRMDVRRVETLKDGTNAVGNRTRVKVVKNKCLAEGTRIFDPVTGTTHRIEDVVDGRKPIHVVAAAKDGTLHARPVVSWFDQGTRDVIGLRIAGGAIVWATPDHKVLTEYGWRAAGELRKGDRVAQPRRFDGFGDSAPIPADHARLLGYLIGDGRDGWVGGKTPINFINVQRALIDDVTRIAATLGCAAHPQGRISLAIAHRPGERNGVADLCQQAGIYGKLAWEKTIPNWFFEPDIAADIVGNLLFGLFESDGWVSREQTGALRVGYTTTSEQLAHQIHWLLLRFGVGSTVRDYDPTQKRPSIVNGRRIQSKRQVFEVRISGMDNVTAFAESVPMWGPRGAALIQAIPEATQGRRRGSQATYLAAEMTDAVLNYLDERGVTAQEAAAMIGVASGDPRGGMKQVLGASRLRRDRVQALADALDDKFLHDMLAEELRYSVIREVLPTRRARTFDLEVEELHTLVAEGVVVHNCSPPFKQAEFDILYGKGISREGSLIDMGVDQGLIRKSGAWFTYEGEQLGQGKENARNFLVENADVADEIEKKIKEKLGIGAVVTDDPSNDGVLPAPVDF
# Arbovirus anti – blocks arbovirus infection. arbovirus infection cell-based antiviral screen. inhibition, % at 10 µM. 0.37% of 200,000 active. AID 1251;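 active = inhibition from about 30%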;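 note: bluetongue infection of BSR cells; cell survival read as ATP light after 72 h; 0% = infected wells without compound and 100% = uninfected wells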
# Mtb growth – M. tuberculosis H37Rv growth inhibitors, H37Rv strain (AID 1626) | M. tuberculosis H37Rv growth inhibition; higher % means a stronger effect | 0.95% of 220,000 active | inhibition, % at 10 µM; hits with a dose series show IC50 in µM;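 active = confirmed in a dose series; inconclusive = inhibition above 80% but not taken into the dose series; inactive = below 80% or under 30% at every dose of the series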;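 note: bacteria incubated seven days before Alamar blue readout; 0% = bacteria only wells and 100% = bacteria with antibiotic wells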
# Arbovirus anti repeat – also measured in Arbovirus anti; calls as there; inhibition, %; measured here: 10K subset replicate screen; many hits read low in the repeat;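 first of two repeat runs on a subset; 0% = infected and 100% = uninfected wells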
# Active calls of the source: *; ? = inconclusive; . = no result given. These rows are one share of the data. The share of hits here may be higher or lower than overall.
SMILES,YopH PTP inh,Mtb bLac sens,RecA splice inh,Arbovirus anti,Mtb growth,others
CC(C)CNC(=O)COC(=O)c1cc(S(=O)(=O)N2CCCCC2)ccc1N1CCOCC1,8,-6,-0.2,1,4%,
Cn1c(CNC(=O)CNS(=O)(=O)c2ccc(F)cc2F)cc(=O)n(C)c1=O,.,-9,-0.6,.,.,
CC(=O)c1ccc(CCCCCCCCCC(=O)O)s1,-16,-5,-1.6,-10,-8%,
COc1ccc(C(=O)Nc2ccc(Cl)cn2)cc1Cl,-33,11,2.2,-6,12%,
CCNC(=O)n1cc(-n2cncn2)c(-c2ccc(Cl)cc2)n1,.,2,0.0,1,-3%,
O=C(Nc1c2c(nn1-c1ccccc1)CS(=O)C2)c1ccc(S(=O)(=O)N2CCOCC2)cc1 (stereo not drawn),.,1,1.6,8,0%,
Cc1nc2ccccc2n1CCc1nc2c3ccccc3nc(=S)n2[nH]1,-20,-10,3.3,6,2%,
Cn1nnnc1Sc1ccc([N+](=O)[O-])cc1Cl,.,-6,0.3,-5,3%,
CN1CCN(C(=O)/C=C/c2ccc3c(c2)OCO3)CC1,-13,-1,-1.2,-12,-2%,
CC(NC(=O)Nc1nnc(C(F)(F)F)s1)N1C(=O)C2C3C=CC(C3)C2C1=O (stereo not drawn),-40,-6,-0.4,3,-1%,
CC1(C(=O)O)CCC(C(=O)N2CCCCC2)C1(C)C (stereo not drawn),.,-6,-0.8,3,-6%,
CCCCn1c(SCC(=O)OCC)nc2c(sc(=S)n2-c2ccccc2OC)c1=O,.,2,4.9,.,.,
Clc1ccc(Nc2ncnc3c2nnn3Cc2ccccc2)cc1,.,25,0.1,.,-6%,
COc1ccc2c(c1)C(=O)N(c1ccc(C)cc1C)C(=O)C2(C)C,.,-5,1.9,.,.,
C[C@H]1CN=C(Nc2ccccc2)N1CCCC1CCCC1,.,-10,0.7,.,.,
COc1ccc(-c2noc(CN3CCN(c4ccccc4)CC3)n2)cc1,-27,-3,-3.1,11,1%,Arbovirus anti repeat=11
COc1cc(/C=C/C(=O)OCC(=O)Nc2cccc(Oc3ccccc3)c2)ccc1O,2,97,4.3,15,50%,
COCCNC(=S)NNc1cccc(C(=O)O)c1,.,-3,-1.3,4,5%,
CC1CCCCN1C(=O)CCn1c(=S)oc2ccccc21 (stereo not drawn),.,1,-1.1,.,-10%,
COc1ccccc1NC(=O)C(=O)NCC1CCCN1S(=O)(=O)c1cccs1 (stereo not drawn),.,-6,2.3,.,.,
CCc1ccccc1-n1nnc(-c2ccccc2)n1,.,?,2.0,.,.,
CCc1ccc(NC(=O)CSc2nc(=O)n(CCN(C)C)c3c2CCCC3)cc1,.,-5,-3.0,.,.,
CCOC(=O)Cn1c(=O)oc2cc(S(=O)(=O)N3CCCC(C)C3)ccc21 (stereo not drawn),.,-6,-0.6,.,.,
O=C(Cc1ccccc1)Nc1cccc(C(=O)N/N=C/c2ccco2)c1,-27,-5,3.4,-4,-6%,
CC[C@@H](C)C(NC(=O)OC(C)(C)C)c1cn([C@@H](CCCCNC(=O)OC(C)(C)C)C(=O)N2CCN(C(=O)OC(C)(C)C)CC2)nn1 (stereo partly drawn),.,14,0.7,-9,-3%,
CN(Cc1ccccc1F)C(=O)c1sccc1-c1ccccc1,.,-1,12,.,.,
COc1ccc(CNC(=O)C2CCN(S(=O)(=O)N3CCC4(CC3)OCCO4)CC2)c(OC)c1,-14,3,-1.8,2,-2%,
O=C(c1ccccc1)N1CCN(Cc2ccccc2Br)CC1,4,-16,.,1,1%,
CCOC(=O)c1c(NC(=O)CCl)sc(C(=O)N(CC)CC)c1C,-7,99,47*,-2,67%,
Cc1ccc(N(CCC(=O)NC(C)(C)C)S(=O)(=O)c2ccc(C)cc2)cc1,.,5,.,12,6%,
Cc1[nH]n(-c2ccccc2)c(=O)c1-c1ccccc1,-18,-2,-5.7,11,-7%,
CCC(C)Sc1nnc(NC(=O)c2ccco2)s1 (stereo not drawn),.,-13,0.2,.,.,
CCCCN1C(N)=NC[C@@H]1CC1CCCCC1,.,50,3.4,.,-1%,
Cc1nc2nc3c(cn2n1)C(=O)CC(C)(C)C3,-34,.,0.6,7,-10%,
COc1ccc(-c2nnc(N)s2)cc1,-51,4,.,-2,-4%,
CC(C)C(NS(=O)(=O)c1cccc2nsnc12)C(=O)Nc1nccs1 (stereo not drawn),.,-1,-1.3,.,6%,
CCCC[n+]1cc(=N)o[n-]1,.,-9,0.3,.,.,
Cn1nnnc1SCC(=O)N1CCN(c2cccc(Cl)c2)CC1,-9,3,1.1,-4,-2%,
COc1ccc(C2=Nc3ccc(C)cc3C(c3ccccc3)N2CC(=O)NN)cc1 (stereo not drawn),.,-4,4.7,14,0%,
C=C(C)Cn1c(CCNC(=O)CCC)nc2ccccc21,-22,?,-4.2,6,-6%,Arbovirus anti repeat=6
CCc1nnc(NC(=O)CCc2nc(C3=CCN(C)CC3)no2)s1,36,-11,1.3,.,-4%,
COc1ccc(/C=N/N=C2\SC(CC(=O)O)C(=O)N2c2ccccc2)cc1 (stereo not drawn),-20,3,-2.7,6,-9%,
CC(C)(C)OC(=O)C(Cc1ccc(OC(C)(C)C)cc1)NC(=O)CNC(=O)CNC(=O)OCc1ccccc1 (stereo not drawn),-16,-4,1.2,-9,6%,
COc1ccccc1OCc1ccc(C(=O)NN)o1,.,-5,-0.5,.,1%,
Cc1ccc2c(c1)CCCN2C(=O)c1ccc2c(c1)OCO2,-27,73,2.4,-7,7%,
CN(C)CCCN(C(=O)c1ccc(Br)s1)c1nc2cc3c(cc2s1)OCCO3,.,0,-0.6,.,.,
COc1ccc(Br)cc1C(=O)Nc1cccc(-c2nnc(-c3ccco3)o2)c1,2,2,.,.,0%,
COc1ccc(NC(=O)c2cc(S(=O)(=O)N3CCCC3)c[nH]2)cc1,.,-2,1.8,.,.,
Cc1cc(C)c(OCC(=O)OCC(=O)N(C)C2CCS(=O)(=O)C2)c(C)c1 (stereo not drawn),.,-6,4.7,.,.,
CCOC(=O)Nc1ccc(OCc2nnc3c4ccccc4c(C)nn23)cc1,.,-2,0.4,-2,5%,
C#CCSc1nnc(-c2cccc3ccccc23)o1,-31,100,6.9,.,?,
Cc1ccc(-c2[nH]nc3c2C(C)C(C#N)=C(N)O3)cc1 (stereo not drawn),-6,-3,88*,-10,14%,
COc1cc2c(cc1OC)CN(C(=O)c1ccc(OC)c(S(=O)(=O)N3CCOCC3)c1)CC2,-52,-6,-1.6,1,-9%,
COc1ccc2c(c1)c(C(=O)N/N=C/c1cn(C)c3ccccc13)c(C)n2C,.,7,-2.4,.,-8%,
COc1ccc(NS(=O)(=O)c2cccc3cccnc23)cc1,-31,-12,.,2,-5%,
O=C(COC(=O)C1=NNC(=O)CC1)NCCc1ccccc1,.,-9,-1.7,.,.,
CCOC(=O)C1(CCc2ccccc2)CCN(Cc2ccc(O)cc2)CC1,.,0,20,1,2%,
Cc1cccc2cc(C#N)c(SCC(=O)N3CC(=O)Nc4ccccc43)nc12,-42,15,-5.0,-18,5%,
CN1C(=O)NC(c2ccccc2)(C(F)(F)F)S/C1=C(/C#N)c1nnc(N2CCOCC2)n1-c1ccccc1 (stereo not drawn),-30,-2,12,7,-10%,
CC12CC(NC(=O)N1c1ccc(C(=O)N3CCN(c4ccc(F)cc4)CC3)cc1)c1ccccc1O2 (stereo not drawn),-30,43,-0.6,12,-9%,
# Next part
SMILES,YopH PTP inh,Mtb bLac sens,RecA splice inh,Arbovirus anti,Mtb growth,others
CCCC(=O)NC(=S)Nc1cccc(Cl)c1N1CCCC1,.,90,16,14,14%,
CCn1c(=O)c2c(O)cc(=O)oc2c2ccccc21,6,9,-1.8,15,-3%,
c1ccc(CCc2nc(-c3ccncc3)no2)cc1,-84,-6,-1.0,1,16%,
COc1ccc2cc(CN(CC3CCCO3)S(=O)(=O)c3ccccc3Cl)c(=O)[nH]c2c1 (stereo not drawn),1,5,1.6,-4,11%,
C=C1CCN(C(Cc2ccccc2)C(=O)OC)S(=O)(=O)c2ccc(F)cc21 (stereo not drawn),.,0,3.3,.,-7%,
CCOC(=O)N/N=C/c1ccc(N(CC)CC)cc1O,-26,-9,-0.7,-26,-1%,
O=C(COc1ccc(/C=N/NC(=O)c2ccc(O)cc2)cc1)Nc1cccc([N+](=O)[O-])c1,.,-2,.,10,-11%,
COc1ccccc1NC(=O)c1ccc(Cl)c(S(=O)(=O)N2CCCCC2)c1,.,-7,4.4,.,.,
Cc1cccc(Cn2c(SCCO)nc3c2c(=O)n(C)c(=O)n3C)c1,-51,35,1.2,6,-6%,
Cc1ccc(S(=O)(=O)N2CCN(C(=O)c3ccccn3)CC2)c(C)c1,.,-2,-4.7,-2,0%,
COc1ccccc1-c1noc2ncnc(Nc3ccccc3C)c12,.,26,2.1,.,.,
O=C(c1ccc(O)cc1)c1ccc(O)cc1O,.,-2,-0.2,.,-1%,
O=C1N(c2nncs2)CCN1[N+](=O)[O-],.,-5,1.1,.,-6%,
CCN1CCN(S(=O)(=O)c2c[nH]c(C(=O)OC)c2)CC1,.,-4,-1.3,.,.,
CCN(CC1CCCN(CCc2cccc(OC)c2)C1)C(=O)c1ccoc1 (stereo not drawn),.,1,1.6,.,.,
CCOC(=O)C1=C(O)C(=O)NC(c2ccccc2)=C(OC2CCCCC2)C1,-25,4,-3.7,27,-3%,
Cn1c(N)c(C(=O)COC(=O)c2ccc([N+](=O)[O-])o2)c(=O)n(C)c1=O,.,99,-4.4,.,-4%,
CSc1cccc(NC(=S)Nc2ccc(F)cc2)c1,.,36,4.7,.,-3%,
COc1cccc(-n2cnc3sc(C)cc3c2=O)c1,.,0,1.1,1,2%,
Cc1cc(OCC(=O)Nc2cc(S(=O)(=O)N3CCOCC3)ccc2N2CCCC2)ccc1C(C)C,.,-15,0.3,.,.,
CCn1cc(/C=c2/sc3n(c2=O)C2c4ccccc4OC(C)(N=3)C2C(=O)OC)c(C)n1 (stereo not drawn),.,83,-1.7,-3,0%,
COc1ccc(O)c(-c2cc(C(F)(F)C(F)F)nc(-c3ccccc3)n2)c1,-9,12,-0.8,-1,3%,
COc1ccc(-c2cc(C(=O)Nc3c(C)nn(Cc4ccccc4Cl)c3C)no2)cc1OC,-43,-1,.,1,6%,
Cc1csc(C(=O)O)c1-n1cccc1,-43,18,2.2,7,-7%,
CCC(C)(C)c1ccc(Oc2ccc(N)cc2)cc1,.,.,3.8,-30,4%,
O=C(c1ccc(Cl)cc1)N1CCN(C(=O)c2ccco2)CC1,-49,3,0.2,-4,-2%,
COc1ccc(-c2c[n+]3c(n2-c2c(C)n(C)n(-c4ccccc4)c2=O)CCCCC3)cc1,.,4,2.8,3,-3%,
Cc1onc(-c2ccccc2Cl)c1C(=O)Nc1ccccc1C(N)=O,-49,-1,-3.3,-2,-8%,Arbovirus anti repeat=5

# Part of the list above in order of SMILES length, largest number first:
SMILES,YopH PTP inh,Mtb bLac sens,RecA splice inh,Arbovirus anti,Mtb growth,others
COc1ccc(-c2c[n+]3c(n2-c2c(C)n(C)n(-c4ccccc4)c2=O)CCCCC3)cc1,.,4,2.8,3,-3%,
Cc1cc(OCC(=O)Nc2cc(S(=O)(=O)N3CCOCC3)ccc2N2CCCC2)ccc1C(C)C,.,-15,0.3,.,.,
Cn1c(N)c(C(=O)COC(=O)c2ccc([N+](=O)[O-])o2)c(=O)n(C)c1=O,.,99,-4.4,.,-4%,
COc1ccc(-c2cc(C(=O)Nc3c(C)nn(Cc4ccccc4Cl)c3C)no2)cc1OC,-43,-1,.,1,6%,
COc1ccc(O)c(-c2cc(C(F)(F)C(F)F)nc(-c3ccccc3)n2)c1,-9,12,-0.8,-1,3%,
CCOC(=O)C1=C(O)C(=O)NC(c2ccccc2)=C(OC2CCCCC2)C1,-25,4,-3.7,27,-3%,
CCN(CC1CCCN(CCc2cccc(OC)c2)C1)C(=O)c1ccoc1 (stereo not drawn),.,1,1.6,.,.,
Cc1onc(-c2ccccc2Cl)c1C(=O)Nc1ccccc1C(N)=O,-49,-1,-3.3,-2,-8%,Arbovirus anti repeat=5
CCN1CCN(S(=O)(=O)c2c[nH]c(C(=O)OC)c2)CC1,.,-4,-1.3,.,.,
O=C(c1ccc(Cl)cc1)N1CCN(C(=O)c2ccco2)CC1,-49,3,0.2,-4,-2%,
COc1cccc(-n2cnc3sc(C)cc3c2=O)c1,.,0,1.1,1,2%,
CSc1cccc(NC(=S)Nc2ccc(F)cc2)c1,.,36,4.7,.,-3%,
O=C(c1ccc(O)cc1)c1ccc(O)cc1O,.,-2,-0.2,.,-1%,
Cc1csc(C(=O)O)c1-n1cccc1,-43,18,2.2,7,-7%,
